# SARS PLpro yeast: blocks SARS-CoV papain-like protease in a yeast assay | S. cerevisiae expressing SARS-CoV PLpro, growth rescue; control for the full effect not named in the record | Potency, µM (series often up to 32.9 µM), without a hit: top-dose activity, positive = growth rescue | hit rate 0.19% among 330,000 | AID 485353; active means well fitted rising curve with a large enough effect; inconclusive means small, poorly fitted or top-dose-only effect; inactive means no such curve, though single readings can be large or run the other way; note: 0% is about no effect; nearly all actives have a fitted effect of over 55% in size; growth read by luminescence after 48 h
# Cruzain Triton: blocks cruzain activity in presence of Triton detergent | Potency, µM, inactives show max response, negative = inhibition, hits mostly inhibitors | hit rate 0.43% among 200,000 | AID 1478 | purified cruzain, Z-FR-AMC fluorescence, 0.01% Triton;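 note: plate controls were neutral wells for no effect and buffer without enzyme for full effect; nearly all actives have a fitted effect of over 40% in size; top concentration of the series not given in the record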
# Target sequence (P25779 123-467 limits assumed): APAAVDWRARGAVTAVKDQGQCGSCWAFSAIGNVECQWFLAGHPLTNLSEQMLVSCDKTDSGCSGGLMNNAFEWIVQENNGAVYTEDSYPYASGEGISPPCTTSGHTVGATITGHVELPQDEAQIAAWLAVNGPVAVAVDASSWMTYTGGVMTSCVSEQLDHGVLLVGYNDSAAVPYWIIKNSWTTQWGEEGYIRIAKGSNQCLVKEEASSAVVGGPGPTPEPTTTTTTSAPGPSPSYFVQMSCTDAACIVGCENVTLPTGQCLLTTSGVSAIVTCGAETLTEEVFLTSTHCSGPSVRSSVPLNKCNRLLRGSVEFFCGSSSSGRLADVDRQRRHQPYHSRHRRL
#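 Steps: dispense cruzain (1.5 nM final) in acetate buffer pH 5.5 with DTT and 0.01% Triton X-100; pin-transfer compounds; incubate 15 min RT; add Z-FR-AMC (2 uM final); read fluorescence every 30 s, using the 60 s intensity change.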
# MARV entry inh: Marburg virus entry inhibition | Marburg virus pseudotyped entry inhibition, cell reporter; control for the full effect not named in the record; about a third of the inactives were read at about 46 µM | AID 540276 | hit rate 1.8% among 300,000 | Potency, µM (series often up to 37.8 µM), for the others: at the highest dose activity change, negative = inhibition, hits mostly inhibitors; active = well fitted inhibition curve with a large enough effect; inconclusive = small, poorly fitted or top-dose-only effect, or effect the other way; inactive = flat fitted curve, though single readings scatter; tested in HEK293 cells; about a fifth of its hits are not listed in these tables; note: % is set by controls: 0 for no effect and ±100 for the full control effect; luciferase read-out
# Lassa entry inh: inhibitors of Lassa virus binding or cell entry; Lassa virus pseudotype entry inhibition, cell reporter; control for the full effect not named in the record; Potency, µM (series often up to 37.9 µM), for inactives: top-dose activity change, negative = inhibition, usual class: inhibitors; hit rate 1.2% among 300,000; AID 540256; active means well fitted inhibition curve with a large enough effect; inconclusive means small, poorly fitted or top-dose-only effect, or effect the other way; inactive means flat fitted curve, though single readings scatter; tested in HEK293 cells; note: % is set by controls: 0 for no effect and ±100 for the full control effect; nearly all actives have a fitted effect of over 50% in size; luciferase read-out
# RE007 growth inh: less growth of the S. pombe RE007 Vpr strain | S. pombe RE007 Vpr strain, BacTiter-Glo ATP luminescence, 24 h; control for the full effect not named in the record | Potency, µM (top dose mostly 92.2 µM), inactives show at the top dose activity change, negative = less growth | hit rate 0.21% among 360,000; active = well fitted falling curve with a large enough effect; inconclusive = small, poorly fitted or top-dose-only effect; inactive = no such curve, though single readings can be large or run the other way;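 note: % is set by controls: 0 for no effect and ±100 for the full control effect; nearly all actives have a fitted effect of over 50% in size; the assay follows cell death caused by Vpr and the record does not say whether a fall means rescue or toxicity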
#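 Fission yeast strain RE007, carrying one chromosomally integrated HIV-1 vpr copy, was seeded at OD 0.01 in PMG+AL medium with 23 nL pinned compound. After 24 h at 30 °C and 99% humidity, viability was read by BacTiter-Glo luminescence.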
# NS1 inh: blocks influenza NS1 protein function; Potency, µM (titrated, usually from 46.1 µM), for the others: at the top dose activity, positive = more growth; AID 2326; S. cerevisiae slowed by influenza A NS1, growth recovery by OD600; hit rate 0.4% among 270,000; active means well fitted rising curve with a large enough effect; inconclusive means small, poorly fitted or top-dose-only effect; inactive means no such curve, though single readings can be large or run the other way; note: nearly all actives have a fitted effect of over 50% in size
#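 Growth recovery, yeast-based: influenza A NS1 expressed in S. cerevisiae causes slow growth, and suppressors are detected by OD600. The parent strain without NS1 is used as positive control.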
# Cruzain inh noDet: blocks cruzain activity in detergent-free assay | purified cruzain, Z-FR-AMC fluorescence, no detergent | P25779 | AID 1476 | hit rate 2.3% among 200,000 | Potency, µM, for the others: max response, negative = inhibition, most hits filed as inhibitors;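 note: plate controls were enzyme without inhibitor for no effect and buffer without enzyme for full effect; nearly all actives have a fitted effect of over 40% in size; top concentration of the series not given in the record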
#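 Purified cruzain at 1.5 nM, pre-incubated 15 min with compound at room temperature in 100 mM sodium acetate pH 5.5, 5 mM DTT, 0.00005% Triton X-100. Reaction started with 2 uM Z-FR-AMC; AMC fluorescence increase over 60 s gives rate.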
# 2A StopGo: FMDV 2A StopGo reporter, luciferase signal. AID 1159524. human cells with a luciferase reporter of 2A StopGo recoding; control for the full effect not named in the record. Potency, µM (doses to about 57.9 µM), without a hit: at the top dose signal change, negative = less light. hit rate 1.2% among 410,000; active = well fitted falling curve with a large enough effect; inconclusive = small, poorly fitted or top-dose-only effect; inactive = no such curve, though single readings can be large or run the other way; tested in HEK293T cells; note: % is set by controls: 0 for no effect and ±100 for the full control effect; nearly all actives have a fitted effect of over 45% in size; luciferase light after 4 h
# Starred values were filed as active, the others as inactive; ? = inconclusive; . = no result given; & = joins results of further samples; [ ] = remark or other dose. Unless noted, calls come from the whole dose curve; as a rule, active = well fitted curve in the direction sought with a large enough effect; inconclusive = small, poorly fitted or top-dose-only effect, or another doubt; inactive = no such curve, though single readings can be large; an effect the other way counts as inactive or inconclusive. Potency is the fitted concentration of half-maximal effect.
SMILES,SARS PLpro yeast,Cruzain Triton,MARV entry inh,Lassa entry inh,RE007 growth inh,NS1 inh,Cruzain inh noDet,2A StopGo
CCC(C)(C)n1nnnc1C(c1cccnc1)N1CCCc2ccccc21 (stereo unspecified),-12%,-0.3%,-9%,6%,0%,-45%,14%,.
CN(C(=O)CSc1nnc(-c2ccc([N+](=O)[O-])cc2)o1)C1CCCCC1,.,-1.3%,4%[46.1 µM],2%[46.1 µM],.,.,-13%,?
O=C(OC1CCOC1=O)c1cc(S(=O)(=O)N2CCOCC2)c(Cl)cc1Cl (stereo unspecified),2%,.,2%,13%,-10%,.,.,-21%
O=C(CCc1c[nH]c2ccccc12)OCc1cccc([N+](=O)[O-])c1,-12%,.,9%[46.1 µM],4%,97%,-14%,.,-9%
O=C(NC1CC1)c1ccc2c(c1)ncn2C1CCCC1,6%,4.3%,11%,21%,-10%,-7%,-9%,61%[activator]
OCC1OC(n2cnc3c(SCc4ccccc4)nc(F)nc32)C(O)C1O (stereo unspecified),.,.,-22%,4%,-7%,.,.,-5%
O=C(CCn1ccc2cc(S(=O)(=O)N3CCCC3)ccc21)NCc1ccccc1Br,.,-6.8%,.,?,.,.,3%,-8%
Fc1ccc(NCc2cccn2-c2nnc(N3CCOCC3)s2)cc1,.,-2.0%,.,17%[46.1 µM],.,.,-5%,0%
CC1CN(Cc2nc3c(c(=O)n(C)c(=O)n3C)n2CC(=O)c2ccccc2)CC(C)O1 (stereo unspecified),1%,10%,-22%,2%,-8%,-6%,3%,9%
COc1cccc(C(=O)Nc2nc3c(c(=O)[nH]2)CCCC3)c1,-10%,-7.0%,?,?,-1%,-15%,-1%,23%
C/C(=N/NC(=O)c1cccs1)c1cccs1,0%,.,?,-3%[46.1 µM],-5%,-25%,.,24%
CCOC(=O)c1c(S(=O)(=O)N2CCCC(C(=O)NCc3cccc(OC)c3)C2)c(C)n(C)c1C (stereo unspecified),.,1.0%,.,?,.,.,-4%,8%
CCOc1ccc(S(=O)(=O)N2CCC(C(=O)N3CCCCCC3)CC2)cc1Cl,-4%,.,?,?,1%,-31%,.,-30%
COc1ccc(OC)c(NS(=O)(=O)c2c(C(=O)N3CCCCCC3)c(C)n(C)c2C)c1,11%,.,.,.,-7%,13%,.,21%
COc1nc(C)ccc1-c1noc(-c2cccs2)n1,-2%,.,11µM*,-29%,-11%,-3%,.,13%
Cc1ccc(S(=O)(=O)NC(Cc2cnc[nH]2)C(=O)O)cc1 (stereo unspecified),14%,-0.7%,-10%,-9%,4%,5%,10%,8%
Cc1ccc(-n2ncc3c2CC(C)(C)CC3NC(=O)CCc2c(C)noc2C)cc1 (stereo unspecified),14%,.,-11%,?,-11%,-17%,.,-10%
COc1ccc(S(=O)(=O)Nc2ccccc2C(=O)N2CCOCC2)cc1F,-4%,.,14%,-4%,0%,7%,.,10%
COc1cc(CN(C(=O)c2cccc(Cl)c2)c2ccccn2)cc(OC)c1OC,.,-2.8%,-20%[46.1 µM],-14%[46.1 µM],.,.,13%,-16%
COC(=O)Cn1c(=O)sc2ccccc21,0%,-1.0%,-1%,16%,4%,0%,-1%,11%
COc1cc(Cl)c(C)cc1NC(=O)c1cn(C2CCCC2)c(=O)c2c1c1ccccc1n2C,.,0.2%,?,?,.,.,2%,-11%
CCN1CCN(C(=O)c2ccc3nc(-c4ccccc4)c(-c4ccccc4)nc3c2)CC1,-3%,.,-34%,2%,-6%,-10%,.,-21%
CCc1ccc2nc(N(Cc3cccnc3)C(=O)Cc3ccccc3)sc2c1,.,-5.9%,.,7%[46.1 µM],.,.,20%,31%[activator]
COc1ccccc1OCCNC(=O)C(CCSC)NS(=O)(=O)c1ccccc1F (stereo unspecified),-3%,.,?,6%,2%,.,.,-13%
CC1CCCC(NC(=O)CCNC(=O)c2ccc(Cl)cc2)C1C (stereo unspecified),-2%,.,1%,0%,-7%,.,.,7%
SMILES,SARS PLpro yeast,Cruzain Triton,MARV entry inh,Lassa entry inh,RE007 growth inh,NS1 inh,Cruzain inh noDet,2A StopGo
Cc1ccc(NC(=O)Cn2c(=O)n(-c3ccccc3)c(=O)c3ccc(C(=O)NCc4ccc5c(c4)OCO5)cc32)c(C)c1,.,-1.0%,1%[46.1 µM],-25%[46.1 µM],.,.,-13%,-19%
Cc1cc(Cl)ccc1OCCCC(=O)Nc1ccc(S(=O)(=O)Nc2ncccn2)cc1,3%,.,4%[46.1 µM],1%,-3%,11%,.,11%
O=C(OCC(=O)C12CC3CC(CC(C3)C1)C2)c1cccnc1Cl,26%,-2.5%,27%,-1%,3%,-11%,-2%,14%
CSc1ccc(CN(C)C(=O)C(c2ccccc2)c2ccccc2)cc1,-6%,.,.,.,29%,4%,.,?
CN1CSC(=S)N(C)C1,.,5.2%&1.9%,-14%&-14%&-14%&-14%,-12%,-14%,-121%&-58%,-3%&3%,0%
CCOc1ccc(C(=O)Nc2ccc3nc(SCC(=O)N(C)c4ccccc4)sc3c2)cc1,.,-4.9%,?,-38%[46.1 µM],.,.,-13%,?
CCOc1ccc(CCNC(=O)c2nnc(Cc3ccc(Cl)cc3Cl)o2)cc1OCC,.,-1.6%,-9%[46.1 µM],16%[46.1 µM],.,.,-8%,-23%
O=C(O)Cc1ccc(C(=O)c2cccs2)s1,7%,-8.3%,-13%[46.1 µM],7%,11%,4%,-16%,9%
O=C(Oc1cc2oc(=O)cc(-c3ccccc3)c2cc1Cl)C1CCCCC1,-25%,-8.9%,15%,-3%,14%,-211%,5%,-23%
CC1Oc2ccccc2N(CC(=O)NC2CC2)C1=O (stereo unspecified),-1%,.,?,8%[46.1 µM],5%,2%,.,29%
Cc1ccc(NC(=O)CSc2nnc(C)c(=O)n2N)cc1Cl,9%,.,24%[46.1 µM],-4%[46.1 µM],-7%,28%,.,-8%
O=C(O)c1cccc(N/N=C/c2cccc3ccccc23)c1,1%,.,2µM*,?,2%,7%,.,4µM*
CC(C)(C)P(=O)(N1CCOCC1)N1CCOCC1,1%,.,-15%[46.1 µM],22%[46.1 µM],4%,.,.,-9%
COc1cccc(C2c3[nH]c4ccccc4c3C[C@H]3C(=O)N(c4ccccc4C(=O)N4CCC(C(=O)O)CC4)C(=O)N23)c1 (stereo partly specified),-13%,.,.,.,14%,-14%,.,-19%
CCOCCc1nnc(NC(=O)C(=O)c2cc(C)n(-c3ccc(C)c(C)c3)c2C)s1,.,-4.8%,-10%[46.1 µM],-7%[46.1 µM],.,.,?,-4%
COC(=O)c1c(-c2ccc(C(C)(C)C)cc2)csc1NC(=O)C1C2CCC(O2)C1C(=O)O (stereo unspecified),6%,-7.6%,2%,?,-7%,22%,28%,-10%
CCOC(=O)N1CCN(c2c(F)cc3[nH]c(=S)[nH]c3c2Br)CC1,2%,-5.7%,-14%,?,3%,-51%,-7%,-25%
Cc1nnc(N2CCOCC2)c2nn(-c3cccc(Cl)c3)c(C)c12,7%,-3.3%,-35%,-11%,-21%,9%,4%,-16%
COc1ccc(C(=O)COC(=O)Cn2nnc3ccccc32)cc1Br,6%,-4.2%,?,-13%,2%,-2%,4%,0%
COc1ccccc1NC(=O)c1ccc(S(=O)(=O)N2CCC(C)CC2)cc1,-19%,.,?,.,3%,3%,.,-27%
CC(=O)Oc1ccccc1/C=C/c1nc2ccccc2c(=O)o1,-3%,.,?,2µM*,-9%,9%,.,?
COC(=O)Nc1nnc(CC(=O)Nc2ccccc2C)s1,1%,-1.0%,16%,-9%,0%,-13%,4%,-17%
Cn1c(-c2csc(-c3ccccc3)n2)n[nH]c1=S,2%,.,2%[46.1 µM],11%[46.1 µM],-5%,3%,.,14%
COc1ccc(CCN2CCCn3c2nc2c3c(=O)n(CC(N)=O)c(=O)n2C)cc1OC,-1%,.,5%,-6%,-12%,12%,.,-10%
CCCN1C2=C(C(=O)CC(C)(C)C2)C(c2ccc(F)cc2)C2=C1c1ccccc1C2=O (stereo unspecified),-2%,-5.8%,-20%,-3%,-5%,4%,1%,0%
SMILES,SARS PLpro yeast,Cruzain Triton,MARV entry inh,Lassa entry inh,RE007 growth inh,NS1 inh,Cruzain inh noDet,2A StopGo
COC(=O)C1=Nc2ccccc2/C1=C\c1c(O)n(-c2ccc(Br)cc2)c(=O)[nH]c1=O,11%,-11%,-18%,-1%,-29%,10µM*,?,20µM*
Fc1ccccc1-c1nnc2c3ccccc3nc(N3CCOCC3)n12,3%,6.3%,6%,-12%,19%,-15%,-1%,4%
O=C(COc1ccc(Cl)cc1)Nc1cccc(-c2ccc(N3CCOCC3)nn2)c1,-1%,.,?,?,9%,.,.,?
Nc1nc(/C=C/c2ccc(F)cc2)nc(-c2ccccc2O)n1,-1%,-3.5%,-15%,?,-27%,22%,-21%,-10%
O=C(Nc1ccc(Br)cc1)Nc1ccccc1Cl,-2%,.,.,.,-26%,-1%,.,27%
CC(=O)c1ccc(NC(=S)N2CCC(Cc3ccccc3)CC2)cc1,-3%,.,27%,-11%,49%,2%,.,-9%
CC1CCCCN1C(=O)CSc1nnc(-c2ccccc2F)o1 (stereo unspecified),1%,.,-9%[46.1 µM],?,1%,0%,.,49%[activator]
CCN(CC)S(=O)(=O)c1ccc(N2CCOCC2)c(NC(=O)c2ccc(=O)[nH]c2)c1,-9%,.,0%[46.1 µM],?,20%,.,.,24%
COc1ccccc1NC(=O)COc1ccc(CO)cc1Cl,-14%,-1.0%,29%,11%,-23%,-54%,11%,7%
CCOC(=O)CSC1=C(C#N)C(c2ccc(Cl)cc2)C(C(=O)OC)C(=O)N1 (stereo unspecified),-2%,-5.8%,?,?,-6%,-5%,-11%,-6%
CN(C(=O)NC(=O)C1=C(N2CCOCC2)/C(=C/c2ccccc2)CC1)S(C)(=O)=O,2%,1.4%,21%,11%,-3%,-30%,2%,.
Cc1ccc(S(=O)(=O)Cc2ccc(C(=O)NCCCN3CCCC3=O)o2)cc1,-4%,-6.0%,-5%,-12%,3%,-11%,2%,7%
CC(C)NCC(O)COCCOc1ccc(C(C)(C)C)cc1 (stereo unspecified),-26%,1.9%,?,-4%,10%,-1%,0%,-14%
